# MLL AF4-AF9 inh = inhibitors of AF4 peptide binding to AF9, primary screen, biochemical, AlphaScreen, biotin-AF4 peptide, FLAG-AF9, single point; actives 0.47% (n = 350,000); AID 651704, 2012; Protein AF-9 (Homo sapiens), P42568; inhibition, % at 10 µM;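 active means every replicate reaching a set inhibition limit, whatever the replicate mean, cut at about 25% in these data; inconclusive means mean inhibition reaches that limit but some replicates miss it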;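 further: 0% = plate neutral control median and 100% = total signal loss; the record names both 10 and 1 µM as test concentration; the first replicate is given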
# HNF4A DNA FP = change in binding of human HNF4A to DNA, primary screen, biochemical, fluorescence polarization, FITC-DNA | Hepatocyte nuclear factor 4-alpha (Homo sapiens), P41235 | actives 0.3% (n = 360,000) | activity change, % at 10 µM | 1 h; in the data active means activity change above about 30%, passing the limit was not always enough;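 further: controls were the assay level and a saturating level of protein; the project sought stronger binding though the title names inhibitors; some compounds called inactive have numbers as strong as hits; positive values seem to mean higher polarization but the record does not say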
# Target sequence (P41235 whole entry, looked up): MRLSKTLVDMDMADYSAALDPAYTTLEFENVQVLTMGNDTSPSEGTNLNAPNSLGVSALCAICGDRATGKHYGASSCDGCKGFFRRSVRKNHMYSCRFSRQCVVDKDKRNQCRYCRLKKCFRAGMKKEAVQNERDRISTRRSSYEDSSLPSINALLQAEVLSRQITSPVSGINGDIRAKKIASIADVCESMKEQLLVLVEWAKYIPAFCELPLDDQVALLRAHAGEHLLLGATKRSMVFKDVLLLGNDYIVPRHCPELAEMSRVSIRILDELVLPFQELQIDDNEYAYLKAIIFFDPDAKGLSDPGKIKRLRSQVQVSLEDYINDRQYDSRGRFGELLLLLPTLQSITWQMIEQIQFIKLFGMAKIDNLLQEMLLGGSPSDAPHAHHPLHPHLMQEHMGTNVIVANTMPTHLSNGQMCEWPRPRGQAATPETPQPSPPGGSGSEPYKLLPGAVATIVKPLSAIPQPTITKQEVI
# ALR inh = inhibitors of human ALR sulfhydryl oxidase, primary screen, biochemical, H2O2 detection, HRP-luminol luminescence, single point; inhibition, % (test concentration not listed); FAD-linked sulfhydryl oxidase ALR (Homo sapiens), P55789; actives 3.8% (n = 290,000); purified ALR, DTT oxidation;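 active means mean and each replicate at 75% or more; inconclusive means only one of the two met; inactive means neither met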;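 further: stock transfer was 7.5 nL into about 7.5 µL; 0% = neutral wells and 100% = wells with inactivated enzyme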
# Target sequence (P55789 whole entry, looked up): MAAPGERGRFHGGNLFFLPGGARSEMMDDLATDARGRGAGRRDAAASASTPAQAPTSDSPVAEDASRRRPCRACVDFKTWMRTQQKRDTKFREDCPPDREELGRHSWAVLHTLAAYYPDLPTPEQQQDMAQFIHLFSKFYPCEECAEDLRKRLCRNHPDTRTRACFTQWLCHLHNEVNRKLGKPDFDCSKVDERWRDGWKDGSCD
# FGF22 binding = binders of human FGF22 protein, primary screen, FGF22 synaptogenesis inhibitor project, biophysical, thermal shift, single point; Fibroblast growth factor 22 (Homo sapiens), Q9HCT0; recombinant FGF22 thermal shift, SYPRO orange fluorescence; percent of sucrose octasulfate shift, DMSO zero; calls only at 9.99 µM; actives 1.5% (n = 340,000);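 active means melting point raised past a set limit in the mean and every replicate; inconclusive means no clear call; three in four hits are not shown here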
# Target sequence (Q9HCT0 whole entry, looked up): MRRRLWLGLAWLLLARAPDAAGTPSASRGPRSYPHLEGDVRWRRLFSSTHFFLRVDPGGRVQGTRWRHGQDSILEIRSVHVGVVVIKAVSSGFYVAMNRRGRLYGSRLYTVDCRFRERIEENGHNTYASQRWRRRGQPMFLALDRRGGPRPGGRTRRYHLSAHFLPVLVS
# Ecoli growth = E. coli growth inhibition, primary screen, OD600 | Escherichia coli growth, 23 h; active compounds read low | OD600 absorbance (no concentration beside the values) | actives 0.21% (n = 330,000) | AID 1053175, 2014;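 active means OD600 absorbance below the run mean of sample wells minus 3.6 SD, in any replicate, cut at about 0.56 in these data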;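 further: stock transfer was 300 nL into about 60 µL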
# Vif A3G = inhibitors of Vif binding to APOBEC3G peptide, primary screen, biochemical, TR-FRET, GST-Vif 1-94, biotin-A3G peptide, dose response retest (AID 1117319) | Virion infectivity factor (Human immunodeficiency virus type 1 group M subtype B (isolate … | TR-FRET GST-Vif / biotin-A3G peptide binding; higher % means a stronger effect; test concentration not given here; strong numbers were not always called active | one-dose inhibition, %; IC50 in µM for titrated hits | actives 0.57% (n = 260,000);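 active means above the screen mean plus three standard deviations and confirmed in dose response; inconclusive means results disagree or hit not tested in dose response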;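 further: Vif residues 1-94 fused to GST binding biotinylated APOBEC3G peptide 110-148; 0% = full assay without inhibitor and 100% = GST in place of GST-Vif; retest series ran down from 100 µM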
# rRNA inh HTS = reduced GFP signal of wild-type E. coli, primary screen, bacterial rRNA inhibitor project, GFP/RFP fluorescence, OD600, single point; E. coli WT GFP vs humanized-ribosome RFP mutants, 24 h; active compounds read low; DMSO median 0, no signal -100; GFP signal change (wild-type ribosome), % (no concentration beside the values); actives 1.6% (n = 350,000); AID 720706, 2013;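 active means significant combined selectivity score with lowered wild-type GFP, culture density cut under 30%, mutant RFP and density less affected; inactive means any of these conditions unmet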; further: one replicate is shown; some compounds called inactive have numbers as strong as hits
# rRNA inh HTS OD600 = second read-out of rRNA inh HTS, no call of its own (marks repeat the call); OD600 change, %; measured here: OD600 growth;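 optical density of the mix in the first replicate; 0 = DMSO median and -100 = no signal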
# rRNA inh HTS RFP = second read-out of rRNA inh HTS, no call of its own (marks repeat the call); RFP signal change, %; measured here: RFP humanized mutant strains;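 first replicate; 0 = DMSO median and -100 = no signal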
# Numbers without * were called inactive; i = inactive; ? = inconclusive; . = not tested or not shown; + = active, no number; & = joins results of further samples. An excerpt; count on the stated rates, not on these rows.
# Every second line gives: MLL AF4-AF9 inh	HNF4A DNA FP	ALR inh	FGF22 binding	Ecoli growth	Vif A3G	rRNA inh HTS	rRNA inh HTS OD600	rRNA inh HTS RFP
CCc1ccc(-c2nc(CS(=O)CC(=O)NCc3cccnc3)c(C)o2)cc1 (stereo not drawn)
 : .	1.4	99*	.	0.7	1%	.	.	.
N#Cc1ccc(COC(=O)c2cccnc2Cl)cc1
 : -1.4	2.4	.	i	0.7	-3%	-25	-41	-9.1
O=C(CC1C(=O)N(Cc2ccccc2)C(=S)N1CCN1CCOCC1)Nc1ccc(F)cc1 (stereo not drawn)
 : 2.6	2.6	4	i	0.67	1%	-13	-15	4.1
Cc1cc(/C=N/Nc2nc(N3CCOCC3)nc(N3CCOCC3)n2)c(C)n1-c1ccccc1
 : 9.7	-0.3	-4	i	.	7%	2	6	2.7
COc1ccccc1N1N=C(c2ccc([N+](=O)[O-])cc2)CC1c1ccccc1 (stereo not drawn)
 : 8.4	47*	-8	+	.	.	10	11	5.9
CCOC(=O)c1cccc(NC(=O)CSc2nc3ccccc3c(=O)n2CC)c1
 : .	9.6	-6	.	0.67	-11%&1%	.	.	.
CCOC(=O)c1c(NC(=O)CN2CCOCC2)sc(C(=O)NC)c1C
 : .	2.7	-9	.	0.68	5%	.	.	.
CCC(=O)Nc1ccc2oc(-c3ccccc3Br)nc2c1
 : .	-4.4	-4	.	0.78	-17%	.	.	.
COc1ccc(/C=C/C(=O)Nc2cccc(S(=O)(=O)NC3=NCCCCC3)c2)cc1
 : 5.5	2.9	-1	i	0.67	-6%	-14	-1	0.5
COc1cc(/C=C/C(=O)OCC(=O)N2CCN(C(=O)c3ccco3)CC2)ccc1O
 : .	-1.1	99*	.	0.7	.	.	.	.
CCOP(=O)(OCC)C(Nc1ccccc1)c1cc(OC)ccc1OC (stereo not drawn)
 : 1.3	-1.8	65	i	0.7	4%	.	.	.
COC(C[C@@H]1O[C@@H]1C(=O)[C@@H](C)OCc1ccccc1)OC
 : -9.9	1.9	-4	i	.	.	5	11	1.2
COc1ccc(-c2noc(CSc3nc(-c4ccccc4)cc(=O)[nH]3)n2)cc1
 : .	1.9	-9	.	0.73	-3%	.	.	.
O=C1[C@H](Cc2ccccc2)NCC=CC[C@H](c2ccc(Cl)cc2)N1Cc1ccc(Cl)cc1
 : 6.1	-0.8	.	i	.	.	15	-12	12
COc1ccccc1-c1cc2nc(NCCc3ccc(S(N)(=O)=O)cc3)ccn2n1
 : 1.8	2.0	.	i	.	.	-18	-23	0.5
Cc1cc(=O)[nH]c(Nc2ccc(N(C)C)cc2)n1
 : -5.5	1.4	99*	i	0.67	6%	5	13	-1.7
Cc1ccc(N2C(=O)CCSC23C(=O)Nc2ccccc23)cc1 (stereo not drawn)
 : .	4.0	-19	.	0.69	?	.	.	.
C[C@H](CO)N1C[C@H](C)[C@H](CN(C)Cc2ccc(-c3ccccc3)cc2)Oc2c(NS(=O)(=O)c3ccccc3)cccc2C1=O
 : -3.4	.	.	i	.	.	-3	2	1.0
CCOC(=O)COc1cc([N+](=O)[O-])cc2cccnc12
 : -0.2	3.1	-24	i	0.61	-6%	16	17	-2.1
Cc1ccc(S(=O)(=O)N2CCC(C(=O)OCCOc3cccc(C)c3)CC2)cc1
 : 11	3.2	.	i	0.73	-6%	-2	-5	5.2

# Two entries picked at random from those above, as already listed:
# Every second line gives: MLL AF4-AF9 inh	HNF4A DNA FP	ALR inh	FGF22 binding	Ecoli growth	Vif A3G	rRNA inh HTS	rRNA inh HTS OD600	rRNA inh HTS RFP
COc1cc(/C=C/C(=O)OCC(=O)N2CCN(C(=O)c3ccco3)CC2)ccc1O
 : .	-1.1	99*	.	0.7	.	.	.	.
CCOC(=O)c1cccc(NC(=O)CSc2nc3ccccc3c(=O)n2CC)c1
 : .	9.6	-6	.	0.67	-11%&1%	.	.	.

# Next structures follow.
# Every second line gives: MLL AF4-AF9 inh	HNF4A DNA FP	ALR inh	FGF22 binding	Ecoli growth	Vif A3G	rRNA inh HTS	rRNA inh HTS OD600	rRNA inh HTS RFP
CC(NC(=O)[C@@H](NC(=O)[C@@H]1Cc2ccccc2CN1)C(C)C)c1ccccc1 (stereo partly drawn)
 : 1.4	5.1	3	i	0.66	4%	4	13	-1.9
CC=Cc1ccc2n(c1=O)C[C@@H]1[C@@H](CO)[C@H](C(=O)N(C)C)[C@H]2N1C(=O)c1ccc(F)cc1 (mixture of isomers)
 : 0.9	.	.	i	.	.	-1	-4	-2.5
CC(C)NC(=O)N(C)C[C@H]1Oc2c(NS(=O)(=O)c3ccc(Cl)cc3)cccc2C(=O)N([C@@H](C)CO)C[C@@H]1C
 : -1.5	.	.	i	.	.	-3	-1	1.5
Brc1cccc(CN2CCCCCC2)c1
 : -0.2	3.5	3	i	0.71	.	7	12	-1.4
COC(=O)CSC1=C(C#N)C(c2ccccc2F)CC(=O)N1 (stereo not drawn)
 : 1.0	-0.3	1	i	0.73	.	7	6	-1.0
CC(C)(C)c1ccc(-c2nnc(N)s2)cc1
 : 1.6	-4.0	2	i	0.67	-3%	-3	-2	4.1
C=CCN1C(=O)C(CC(=O)NCC)SC1=Nc1ccc(S(N)(=O)=O)cc1 (stereo not drawn)
 : .	-5.6	-1	.	0.68	15%	.	.	.
O=S(=O)(c1cccc(-c2nnc3n2CCCCC3)c1)N1CCCC1
 : 5.1	-0.3	4	i	0.72	.	13	1	0.9
COc1ccc(O)c(C2NC(CC(C)C)(C(=O)O)C3C(=O)N(Cc4ccccc4)C(=O)C23)c1 (stereo not drawn)
 : .	3.2	27	.	0.68	2%	.	.	.
O=C(NCc1ccc(Cl)cc1)C1CCCO1 (stereo not drawn)
 : -0.5	-1.8	1	i	0.68	-6%	1	8	-1.7
COc1cc2c(cc1OC)C(C)N(CC(=O)Nc1ccc(C)c(S(=O)(=O)N3CCOCC3)c1)CC2 (stereo not drawn)
 : 8.6	3.4	-2	i	0.71	.	-1	-6	-1.4
CCCNC(=O)[C@H]1[C@H](CO)[C@H]2Cn3c(ccc(C4=CCCC4)c3=O)[C@@H]1N2CCC(F)(F)F
 : 4.5	.	.	i	.	.	0	-3	-4.1
CC(Sc1nc2ccccc2c(=O)n1C)C(=O)N(C)C1CCCCC1 (stereo not drawn)
 : 2.4	-1.9	-8	i	0.68	3%	0	0	1.1
C[C@@H]1CN([C@@H](C)CO)C(=O)c2cc(NC(=O)Nc3cccc4ccccc34)ccc2O[C@@H](C)CCCCO[C@H]1CN(C)C(=O)NC1CCCCC1
 : -3.8	.	.	i	.	.	1	1	1.8
Cc1ccc(Cl)cc1NC(=O)CN1C(=O)NC2(CCCCCC2)C1=O
 : -8.1	0.2	3	i	0.71	3%	-1	-4	1.6
CCN(CC)C(=O)CSc1nc2ccccc2c(=O)n1-c1cccc(OC)c1
 : .	-0.7	.	.	0.71	18%	.	.	.
COc1ccc(-c2nc(-c3cccs3)no2)cc1
 : -6.4	-4.2	-1	i	0.7	16%	0	5	-5.2
COc1ccc(CNC(=O)CN(CC2CCCO2)C(=O)CNS(=O)(=O)c2ccc(F)cc2)cc1 (stereo not drawn)
 : .	3.3	.	.	0.66	22%	.	.	.
O=C(c1ccc(F)cc1)N1[C@H](CO)[C@@H]2c3ccccc3NC[C@@H]21
 : 0.3	.	.	i	.	.	3	18	0.0
O=C(Nc1ccc2ccccc2c1)C(c1ccc(C(F)(F)F)cc1)n1c(=O)c(-c2cc3ccccc3[nH]2)nc2ccccc21 (stereo not drawn)
 : -15	7.2	.	i	.	.	-4	1	1.4

molecule	MLL AF4-AF9 inh	HNF4A DNA FP	ALR inh	FGF22 binding	Ecoli growth	Vif A3G	rRNA inh HTS	rRNA inh HTS OD600	rRNA inh HTS RFP
Cc1cnc(NC(=O)CSc2nnc(Cc3ccccc3)o2)s1	8.2	5.8	30	i	0.65	5%	-8	-1	14
O=C(C[C@H]1CC[C@@H](NC(=O)CC2CC2)[C@@H](CO)O1)NCc1ccc(-c2ccccc2)cc1	-0.5	.	.	i	.	.	-1	-6	2.5
Cc1cc(C(=O)COC(=O)CCc2nc3ccccc3c(=O)[nH]2)c(C)n1CC1CCCO1 (stereo not drawn)	.	.	-1	.	0.69	7%	.	.	.
Cc1cc(O)c(C2(O)C(=O)Nc3ccccc32)cc1C (stereo not drawn)	2.0	-1.0	16	i	0.68	-6%	4	3	0.1
O=C(CSc1ncnc2c1nnn2-c1ccc(F)cc1)NCC1CCCO1 (stereo not drawn)	.	-4.2	?	.	0.72	-3%	.	.	.
COc1ccc(N2CCN(C(CNC(=O)C(=O)NCCCn3ccnc3)c3cccnc3)CC2)cc1 (stereo not drawn)	7.9	-2.7	90*	i	0.67	3%	10	7	0.8
O=C1N2CCCCC1(c1ccccc1)CCCC2	0.3	-1.6	.	i	.	.	.	.	.
CC1=C(C(=O)N(C(C)C)C(C)C)CC(CC(=O)NCCCCc2ccccc2)C(=O)N1CCCN1CCCC1=O (stereo not drawn)	-3.6	0.0	.	i	.	.	-2	3	0.0

molecule	MLL AF4-AF9 inh	HNF4A DNA FP	ALR inh	FGF22 binding	Ecoli growth	Vif A3G	rRNA inh HTS	rRNA inh HTS OD600	rRNA inh HTS RFP
O=C(Cn1cnc2c(cnn2-c2ccc(Cl)cc2)c1=O)N1CCN(c2ccccc2)CC1	-2.0	0.1	-3	i	0.73	30%	5	6	-0.9
COc1ccc(S(=O)(=O)N2CCCC2C(=O)n2nc(C)cc2C)cc1 (stereo not drawn)	0.4	0.1	-3	i	0.73	24%	7	-2	-1.1
N#C/C(=C\c1ccccc1Cl)C(=O)NC(=O)Oc1ccccc1	.	0.8	1	.	0.65	0%	.	.	.
COc1ccccc1NS(=O)(=O)c1cc(NC(=O)c2cccs2)ccc1N1CCCCC1	5.7	0.9	0	i	0.71	-3%	9	8	-4.2
CC(C)C(=O)c1c(C(C)C)nn2ccccc12	-2.7	-4.1	1	i	0.71	.	4	10	-0.3
CCC(=O)N1CC2(C1)[C@H](c1ccccc1)[C@@H](CO)N2Cc1ccccc1OC	-0.8	.	.	i	.	.	1	-4	0.0
CCc1nc2c(OCc3ccc(C(F)(F)F)cc3)cccn2c1N(C)C(=O)c1ccc(OC)cc1	0.4	1.1	.	i	.	.	-5	-20	4.0
COc1cccc(C(=O)/C=C/Nc2cccc(O)c2)c1	12	6.2	15	i	0.73	1%	5	-7	5.9

# Source: PubChem BioAssay
